StopGo FLuc = lowers the firefly signal of an FMDV 2A StopGo reporter; HEK cells with a luciferase reporter of 2A StopGo recoding; Potency, µM (doses to about 57.5 µM), without a hit: at the top dose signal change, negative = less light; 120,000 tested, 0.23% active; active = well fitted falling curve with a large enough effect; inconclusive = small, poorly fitted or top-dose-only effect; inactive = no such curve, though single readings can be large or run the other way; note: nearly all actives have a fitted effect of over 60% in size; overnight with compound
StopGo RLuc = FMDV 2A StopGo reporter, Renilla signal; HEK cells with a luciferase reporter of 2A StopGo recoding; Potency, µM (doses to about 57.5 µM), for the others: top-dose signal change, negative = less light; 120,000 tested, 0.32% active; AID 1745857; active means well fitted falling curve with a large enough effect; inconclusive means small, poorly fitted or top-dose-only effect; inactive means no such curve, though single readings can be large or run the other way; note: nearly all actives have a fitted effect of over 55% in size; overnight with compound
* marks the source's active call; other numbers are inactive results; & = joins results of further samples; [ ] = dose if it differs, or a comment. % is set by controls: 0 for no effect and ±100 for the full control effect; potency is the fitted concentration of half-maximal effect. Not a hit list; any-hit rate near 0.53%.

`CC(C)(C)OC(=O)N1CCC(c2c(C(=O)NCc3ccco3)cnn2-c2ccc(F)cc2F)CC1` gave StopGo FLuc -19% and StopGo RLuc 16%.
CC(O)CSc1nc2c(c(=O)[nH]c(=O)n2C)n1Cc1ccccc1Cl (stereo not given) was read as StopGo FLuc 12% and StopGo RLuc 12%.
Screening Cc1ccc(NC(=O)Nc2nnc(SCC(=O)Nc3ccc(F)cc3F)s2)cc1 returned StopGo FLuc 7% and StopGo RLuc -1%.
`O=C(/C=C/Nc1ccc(F)cc1)C(F)(F)F` gave StopGo FLuc inconclusive and StopGo RLuc 1%.
Screening CC1=C(C#N)C(c2ccccc2)C2=C(CC(C)(C)CC2=O)N1 (stereo not given) returned StopGo FLuc 14% and StopGo RLuc 36%.
Screening Cc1ccc(N=CN(C)C=Nc2ccc(C)cc2C)c(C)c1 returned StopGo FLuc -11%[11.5 µM] and StopGo RLuc -13%.
For COCCCNC(=O)c1sc2nc(C)c(C(=O)Nc3ccc(C)cc3C)c(-c3ccc(Br)cc3)c2c1N the results were StopGo FLuc -9% and StopGo RLuc 3%.
`Brc1ccc2[nH]c3c(c2c1)CCCCC3` gave StopGo FLuc 0% and StopGo RLuc -29%.
Screening Cc1cccc(N2CCN(C(=O)c3cc4c(=O)oc5ccccc5c4s3)CC2)c1C returned StopGo FLuc -5% and StopGo RLuc -10%.
`CCOC(=O)c1cc2ccccc2cc1O` gave StopGo FLuc 0% and StopGo RLuc 6%.
Screening COc1ccc(Nc2cc(C)nc3ccc(Cl)cc23)cc1 returned StopGo FLuc -5% and StopGo RLuc -20%.
For CCCn1nnc(NCc2cccc(Cl)c2)n1 the results were StopGo FLuc 178%[activator] and StopGo RLuc 0%.
For COc1ccc(C)cc1-n1nnc(-c2nc(-c3ccccc3)no2)c1N the results were StopGo FLuc 84%[activator] and StopGo RLuc -7%.
For CCOc1ccc(NC(=O)CSc2oc(-c3ccco3)nc2S(=O)(=O)c2ccc(C)cc2)cc1 the results were StopGo FLuc -20% and StopGo RLuc -14%.
For COc1cccc(C2C(C(N)=O)=C(C)Nc3nc(CCCO)nn32)c1 (stereo not given) the results were StopGo FLuc -4%&-12% and StopGo RLuc 13%&-6%.
COc1ccccc1CCNC(=O)CSc1ccccc1C(=O)OCC(=O)C(C)(C)C was read as StopGo FLuc -14% and StopGo RLuc 25%.
For COCCCn1c(-c2ccccc2Cl)n[nH]c1=S the results were StopGo FLuc 11% and StopGo RLuc 16%.
O=C(O)c1cccc(Nc2ncnc3scc(-c4ccccc4)c23)c1 was read as StopGo FLuc 9% and StopGo RLuc -6%.
O=C(O)c1ccc(N2C(=O)C/C(=C/c3c[nH]c4ccccc34)C2=O)cc1 was read as StopGo FLuc 0% and StopGo RLuc -8%.
`COc1ccc(C(=O)/C=C/c2ccc(N)cc2)cc1` gave StopGo FLuc 146%[activator] and StopGo RLuc 69%[activator].
CN(CC(=O)Nc1ccccc1Cl)Cc1csc(-c2ccccc2)n1 was read as StopGo FLuc 0% and StopGo RLuc 18%.
Screening O=C(Nc1nc(C23CC4CC(CC(C4)C2)C3)cs1)c1cc(-c2ccncc2)nc2ccccc12 returned StopGo FLuc 12% and StopGo RLuc 1%.
Screening COc1cccc2cc(-c3cn4c(n3)sc3cc(F)ccc34)c(=O)oc12 returned StopGo FLuc -14% and StopGo RLuc -10%.
O=C(O)C1Cc2ccccc2S1 (stereo not given) was read as StopGo FLuc 24% and StopGo RLuc 19%.
Screening COc1ccc(C2c3cc(OC)c(OC)cc3CC(=O)N2c2ccc(C)cc2)cc1 (stereo not given) returned StopGo FLuc 24% and StopGo RLuc 53%[activator].
`Cc1cc(C)c2nc(SCC(=O)N(C)C)cc(C)c2c1` gave StopGo FLuc 9% and StopGo RLuc -1%.
Screening COc1cc(NC(=O)C(=O)Nc2ccc3nc4n(c(=O)c3c2)CCCCC4)cc(OC)c1OC returned StopGo FLuc -17% and StopGo RLuc -11%.
For CC(C)Oc1cccc(Cn2cnc3c2c(=O)n(C)c(=O)n3C)c1 the results were StopGo FLuc 3.5µM* and StopGo RLuc 3.5µM*.
CC(C)n1c(N2CCN(C)CC2)nc2c1c(=O)[nH]c(=O)n2C was read as StopGo FLuc 1% and StopGo RLuc 1%.
Screening CCC(C)NC(=O)Nc1c(NC)c2ccccc2oc1=O (stereo not given) returned StopGo FLuc 12% and StopGo RLuc -8%.
`CC(=O)c1cccc(NC(=O)c2sc(-n3nc(C)c(Cc4ccccc4)c3C)nc2C)c1` gave StopGo FLuc -9% and StopGo RLuc -8%.
Screening Cc1ccccc1Nc1cc(C(=O)NC2CCCCC2)c2ccccc2n1 returned StopGo FLuc -3% and StopGo RLuc 16%.
Screening CCOC(=O)c1cc(-c2ccccc2)n(-c2cccc(C(=O)N(CC)c3ccccc3)c2)c1C returned StopGo FLuc -1% and StopGo RLuc -15%.
Screening CCC(=O)N1CCc2cc(Br)cc(S(=O)(=O)N3CCC(C(=O)N(CC)CC)CC3)c21 returned StopGo FLuc -7% and StopGo RLuc -3%.
For Cc1ccc(C(=O)NC2CC2)cc1NC(=O)NC1CCCC1 the results were StopGo FLuc -3% and StopGo RLuc -3%.
`CCCc1cc(=O)oc2c(C)c(OC/C=C(\C)CCC=C(C)C)ccc12` gave StopGo FLuc -1% and StopGo RLuc 2%.
For Cc1ccc(CNC(=O)CSc2nc(=O)n(Cc3ccco3)c3c2CCC3)cc1 the results were StopGo FLuc 2% and StopGo RLuc 154%[activator].
Screening CC(C)c1noc(C(C)Nc2ccc3oc(C(C)(C)C)nc3c2)n1 (stereo not given) returned StopGo FLuc inconclusive and StopGo RLuc inconclusive.
Cc1nc(-c2cccc(NC(=O)Nc3ccc([N+](=O)[O-])cc3)c2)no1 was read as StopGo FLuc inconclusive and StopGo RLuc inconclusive.
`CC(=O)c1ccc(N2CCN(S(=O)(=O)c3cc(-c4onc(C)c4C)ccc3C)CC2)cc1` gave StopGo FLuc 2% and StopGo RLuc 39%[activator].

Reprinted at random: 3 compounds from above
Screening CC(C)c1noc(C(C)Nc2ccc3oc(C(C)(C)C)nc3c2)n1 (stereo not given) returned StopGo FLuc inconclusive and StopGo RLuc inconclusive.
For Cc1ccc(C(=O)NC2CC2)cc1NC(=O)NC1CCCC1 the results were StopGo FLuc -3% and StopGo RLuc -3%.
Screening CCOC(=O)c1cc(-c2ccccc2)n(-c2cccc(C(=O)N(CC)c3ccccc3)c2)c1C returned StopGo FLuc -1% and StopGo RLuc -15%.

(cont.)
For CC(C)C(=O)Nc1ccccc1Br the results were StopGo FLuc -5% and StopGo RLuc 7%.
For Cc1cc(C)c(NC(=O)C2CCN(c3cnc4ccccc4n3)CC2)c(C)c1 the results were StopGo FLuc 0% and StopGo RLuc 0%.
Screening CCOC(=O)CNc1nc(-c2ccccc2)c2cc(C)ccc2n1 returned StopGo FLuc 3% and StopGo RLuc -2%.
CCN1C(=O)COc2ccc(-c3nc(NC(=O)c4cccs4)sc3C)cc21 was read as StopGo FLuc inconclusive and StopGo RLuc inconclusive.
`CCC(C)Cc1c(C)sc2nc(CNc3ccc(OC)cc3)[nH]c(=O)c12` (stereo not given) gave StopGo FLuc 0% and StopGo RLuc -5%.
CCOc1nc2ccccc2nc1C(=O)Nc1cc(OC)c(OC)c(OC)c1 was read as StopGo FLuc 6% and StopGo RLuc -3%.
Screening CC(C)Nc1nc(C(=O)Nc2ccc3[nH]ccc3c2)cs1 returned StopGo FLuc 237%[activator] and StopGo RLuc 35%[activator].
For Cn1ccc2ccc(C(=O)N3CCC(C(N)=O)CC3)cc21 the results were StopGo FLuc 31%[activator] and StopGo RLuc 3%.
For O=C(COc1ccccc1)Nc1nc(-c2ccc(Br)s2)ns1 the results were StopGo FLuc 68%[activator] and StopGo RLuc -11%.
For COc1cccc(-n2c(SCC(=O)N3CCc4ccccc43)nc3c([nH]c4ccccc43)c2=O)c1 the results were StopGo FLuc -3% and StopGo RLuc -5%.
`Cc1ccc(C(NC(=O)Cc2n[nH]c(=O)c3ccccc23)C2CC2)cc1` (stereo not given) gave StopGo FLuc -4% and StopGo RLuc -8%.
For COCCn1c(N2CCN(C)CC2)nc2c1c(=O)[nH]c(=O)n2C the results were StopGo FLuc 9% and StopGo RLuc 0%.
FC(F)(F)c1cccc(CSc2nnc(-c3cccnc3)n2-c2ccc(Br)cc2)c1 was read as StopGo FLuc -18% and StopGo RLuc inconclusive.
`COc1ccc(Cn2c(C(=O)O)c(CNCCc3cccs3)c3ccc(C)cc32)cc1` gave StopGo FLuc -14% and StopGo RLuc 19%.
Cc1cccc2c(=O)c(-c3ccc4c(c3)OCO4)c(NC(=O)c3ccc(F)cc3)oc12 was read as StopGo FLuc 0% and StopGo RLuc 12%.
`CCCc1ccc(OCC(=O)Nc2sc3c(c2C(=O)OC)CCCCC3)cc1` gave StopGo FLuc 0% and StopGo RLuc -1%.
Screening Cc1ccc(C)c(-n2ccnc2SC2CCCCC2=O)c1 (stereo not given) returned StopGo FLuc -5% and StopGo RLuc 16%.
For COc1cc(OC)cc(-c2nc3n(n2)C(c2ccccc2F)C(C(=O)Nc2cccnc2)=C(C)N3)c1 (stereo not given) the results were StopGo FLuc -13% and StopGo RLuc -9%.
Screening CCc1nnc(NC(=O)Cc2c(C)c3ccc(OC)c(OC)c3oc2=O)s1 returned StopGo FLuc 12% and StopGo RLuc 2%.
For CCNc1c(NC(=O)Nc2ccc(OC)c(OC)c2)c(=O)oc2ccccc12 the results were StopGo FLuc 1% and StopGo RLuc 8%.
`O=c1oc2ccc3ccccc3c2cc1-c1ccccc1` gave StopGo FLuc 0% and StopGo RLuc 16%.
Cc1cc(=O)[nH]c2nnc(SCc3ccc(C(F)(F)F)cc3)n12 was read as StopGo FLuc 22% and StopGo RLuc 19%.
For O=C(O)c1cc(NC(=O)c2ccccc2)cc(C(=O)O)c1 the results were StopGo FLuc -1% and StopGo RLuc -9%.
For CN(C)c1ccc(NC(=O)CCCc2c[nH]c3ccccc23)cc1 the results were StopGo FLuc 104%[activator] and StopGo RLuc -4%.
Screening COCCn1cnc2c1c(=O)n(CC(=O)Nc1ccccc1C)c(=O)n2CC(C)C returned StopGo FLuc -19% and StopGo RLuc -13%.
Screening O=C(Nc1cccc(C(F)(F)F)c1)C(=Cc1cccc(Oc2ccccc2)c1)C(=O)Nc1cccc(C(F)(F)F)c1 returned StopGo FLuc 4.5µM* and StopGo RLuc 4µM*.
Screening CCC(C)NC(=O)c1sc2nc(C)c(C(=O)Nc3ccc(C)cc3C)c(-c3ccc(Cl)cc3)c2c1N (stereo not given) returned StopGo FLuc -7% and StopGo RLuc 1%.
Screening O=C(COC(=O)/C=C/c1cccc2cccnc12)Nc1ccc(O)cc1 returned StopGo FLuc -24% and StopGo RLuc -23%.
Screening Cc1cccc2[nH]cc(C3=CCN(C(C)C(=O)NC4CC4)CC3)c12 (stereo not given) returned StopGo FLuc 15% and StopGo RLuc -7%.
Screening COc1ccc(-c2cc(C(=O)NCCc3ccc(Cl)cc3)[nH]n2)cc1 returned StopGo FLuc -7% and StopGo RLuc -11%.

A run of entries of the results above, as a working copy:
Screening O=C(Nc1cccc(C(F)(F)F)c1)C(=Cc1cccc(Oc2ccccc2)c1)C(=O)Nc1cccc(C(F)(F)F)c1 returned StopGo FLuc 4.5µM* and StopGo RLuc 4µM*.
Screening CCC(C)NC(=O)c1sc2nc(C)c(C(=O)Nc3ccc(C)cc3C)c(-c3ccc(Cl)cc3)c2c1N (stereo not given) returned StopGo FLuc -7% and StopGo RLuc 1%.
Screening O=C(COC(=O)/C=C/c1cccc2cccnc12)Nc1ccc(O)cc1 returned StopGo FLuc -24% and StopGo RLuc -23%.
Screening Cc1cccc2[nH]cc(C3=CCN(C(C)C(=O)NC4CC4)CC3)c12 (stereo not given) returned StopGo FLuc 15% and StopGo RLuc -7%.

Next part.
For Cc1cccc(NC(=O)CNC(=O)c2cc3ccc(F)cc3nc2C)c1C the results were StopGo FLuc -1% and StopGo RLuc -8%.
`N#Cc1ccc(NC(=O)NCc2ccccn2)cc1` gave StopGo FLuc 0% and StopGo RLuc 31%[activator].
`COc1ccc(Cc2nnc(/C=C/c3cccc4ccccc34)o2)cc1` gave StopGo FLuc 10% and StopGo RLuc 6%.
CCOC(=O)C(C(C)=O)=C1SCCS1 was read as StopGo FLuc 19% and StopGo RLuc 15%.
`COc1cc(C#N)ccc1OCC(=O)NC(c1ccccc1)C1CC1` (stereo not given) gave StopGo FLuc 1% and StopGo RLuc 14%.
`CCOC(=O)c1c(NC(=O)c2ccc(S(=O)(=O)N(CC(C)C)CC(C)C)cc2)sc2c1CCN(C(=O)OCC)C2` gave StopGo FLuc -24% and StopGo RLuc -12%.
For COc1ccc(-c2noc(N3CCC(C(=O)N(C)c4cc(Cl)ccc4OC)CC3)n2)cc1 the results were StopGo FLuc -24% and StopGo RLuc -6%.
For COc1cc(OC)c(OC)cc1CN1CCc2nc(N3CCN(C)CC3)ncc2C1 the results were StopGo FLuc -12% and StopGo RLuc 8%.
`C=CCN1CCN(C(=O)/C=C/c2ccccc2)CC1` gave StopGo FLuc 52%[activator] and StopGo RLuc -1%.
`COc1cc(CC(=O)OCc2ccccc2C#N)ccc1C` gave StopGo FLuc 37%[activator] and StopGo RLuc 6%[1.06 µM].
Screening COc1ccc(NC(=O)c2oc3ccccc3c2NC(=O)Cc2cccs2)cc1 returned StopGo FLuc 0% and StopGo RLuc 10%.
`O=C(Nc1nnc(C2CC2)s1)C(Oc1ccccc1)c1ccccc1` (stereo not given) gave StopGo FLuc 18% and StopGo RLuc 10%.
For Nc1cc(S(=O)(=O)O)ccc1S(=O)(=O)O the results were StopGo FLuc -2% and StopGo RLuc 7%.
Cc1ccc(-n2nc(CO)c(C(=O)NCCCc3ccccc3)n2)cc1 was read as StopGo FLuc -9% and StopGo RLuc 4%.
For O=C(NCCCN1CCCCC1)c1cc(-c2ccncc2)nc2ccccc12 the results were StopGo FLuc -21% and StopGo RLuc -24%.
Screening CCc1ccc2nc(NC(=O)Cn3nc(C)c4ccccc4c3=O)sc2c1 returned StopGo FLuc 198%[activator] and StopGo RLuc 0%.
